CFTR F508del = compounds raising F508del-CFTR protein level – cell-based, HeLa F508del-CFTR, immunofluorescence, viability, primary screen (AID 1224863); HeLa F508del-CFTR, immunofluorescence total CFTR, 24 h; by the record results were divided by relative cell number; some inactives read as strong as hits; calls, or highest fold increase where a dose series was run; 10,000 tested, 0.1% active; in the data nearly all actives have a first-pass fold increase above 1.5; a few of its hits are not listed in these tables;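 also: total CFTR protein by anti-CFTR immunofluorescence in fixed cells; first pass at 25 µM or 10 µg/mL by library and series up to twice that; 1 = untreated cells; first-pass hits also needed half or more of the cells alive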
CFTR F508del fold 25 µM = further read-out of CFTR F508del, marked with its call; fold increase; measured here: primary screen single dose 25 uM; library dosed in µM
CFTR F508del fold 10 ug/mL = recorded beside CFTR F508del, whose call it bears; fold increase; measured here: primary screen 10 ug/mL
CFTR F508del viability 25 µM = recorded beside CFTR F508del, whose call it bears; viability, %; measured here: primary viability 25 uM; library dosed in µM;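 0% = killed and 100% = untreated cells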
CFTR F508del viability 10 ug/mL = also measured in CFTR F508del; calls as there; viability, %; measured here: primary viability 10 ug/mL;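 0% = killed and 100% = untreated cells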
The depositor's hits bear a star; i = inactive; · = no result given; & = joins results of further samples.

SMILES | CFTR F508del | CFTR F508del fold 10 ug/mL | CFTR F508del viability 10 ug/mL | others
CC(C)Sc1nc2cc(Cl)ccc2c(=O)n1CC1CCCO1 (centres undefined) | i | 0.87 | 90
Cc1sc2nc(CSC(C)C(=O)NC(C)C)[nH]c(=O)c2c1C (centres undefined) | i | 1.1 | 91
COc1cc(F)c(S(=O)(=O)N2CCN(c3ncc(C(F)(F)F)cc3Cl)CC2)cc1OC | i | 0.9 | 88
N#CCSc1nnc(NCCc2cccs2)s1 | i | 0.94 | 88
Cc1nn(C)c(C)c1NS(=O)(=O)c1ccc(S(=O)(=O)N2CCOCC2)cc1 | i | 0.93 | 89
O=C(NC(c1cccs1)C1CCCC1)NC(c1cccs1)C1CCCC1 (centres undefined) | i | 1.3 | 111
CC(C)CCC(=O)N1CCN(C(=O)N2CCCCC2)CC1 | i | 0.93 | 93
N#Cc1c(SCc2ccccc2)noc1-c1ccc(Cl)c(Cl)c1 | i | 0.97 | 100
CC1(c2ccc3c(c2)OCO3)NC(=O)N(Cc2ccc(Cl)cc2)C1=O (centres undefined) | i | 0.94 | 89
COC(=O)c1nnn(C2CCN(C(=O)C3CCCN3C(=O)OC(C)(C)C)CC2)c1C(=O)OC (centres undefined) | i | 0.89 | 94
CC1CCc2c(sc(NC(=O)Cn3cnc(C#N)n3)c2C#N)C1 (centres undefined) | i | 0.87 | 78
CN1C(C(=O)Nc2ccccn2)=C(O)c2sc(Cl)cc2S1(=O)=O | i | · | · | CFTR F508del fold 25 µM=0.98;CFTR F508del viability 25 µM=78
CC[C@H]1OC(=O)[C@H](C)[C@@H](O[C@H]2C[C@@](C)(OC)[C@@H](O)[C@H](C)O2)[C@H](C)[C@@H](O[C@@H]2O[C@H](C)C[C@H](N(C)C)[C@H]2O)[C@](C)(O)C[C@@H](C)/C(=N/OCOCCOC)[C@H](C)[C@@H](O)[C@]1(C)O | i | · | · | CFTR F508del fold 25 µM=1.2;CFTR F508del viability 25 µM=99
CCCNC(=O)c1cc2c(nc3sccn32)s1 | i | 1.1 | 83
C[C@@H]1CC2C3CCC4=CC(=O)C=C[C@]4(C)[C@@]3(F)[C@@H](O)C[C@]2(C)[C@@]1(O)C(=O)COP(=O)(O)O (some centres undefined) | i | · | · | CFTR F508del fold 25 µM=1.2;CFTR F508del viability 25 µM=81
O=C(N1CCCCC1)N1CCN(Cc2cccc3ccccc23)CC1 | i | 0.92 | 82
O=C(NCCc1cccs1)C1COCCO1 (centres undefined) | i | 0.95 | 92
O=S(=O)(NCc1ccc2c(c1)OCO2)c1ccc(Cl)cc1C(F)(F)F | i | 0.97 | 100
Clc1ccc(-n2c(Cc3ccccc3)nnc2Sc2ccc3nnnn3n2)cc1 | i | 0.88 | 90
Cc1cccc2c(=O)[nH]c(COC(=O)C3(c4ccc(F)cc4)CCC3)nc12 | i | 0.92 | 100
CC(N)c1cccc([N+](=O)[O-])c1 (centres undefined) | i | 0.95 | 91
CN(Cc1ccc(C(F)(F)F)cc1)Cn1cnc(-c2ccc([N+](=O)[O-])cc2)n1 | i | 0.97 | 96
Cn1cc(C(=O)CSc2nnnn2C)cc1C(N)=O | i | 1.1 | 101
COc1ccc(C2CCCN2Cn2cnc3cc(C)c(C)cc32)cc1 (centres undefined) | i | 0.98 | 90
CN(C)CCSc1nc2ccccc2c2nc(=O)c(-c3ccccc3)nn12 | 6.5 | 1.8 | 83
CS(=O)(=O)NC1CCN(c2nc3ccccc3s2)CC1 | i | 0.91 | 82
COc1cc(CSc2nnc(-c3ccco3)o2)ccc1OC(F)F | i | 1 | 86
CCCCn1nnnc1COC(=O)c1sc(NC(=O)C(C)(C)C)cc1C | i | 0.92 | 89
O=C1C(=O)N(CN2CCN(Cc3ccc4c(c3)OCCO4)CC2)C(=O)N1Cc1ccccc1 | i | 1 | 102
C/C=C/COC(=O)c1sc(-c2ccsc2)nc1C | i | 0.93 | 89
O=C(NC1CC2CC1C1CCCC21)C1CCCC1 (centres undefined) | i | 0.94 | 99
CC(C)COCCCNS(=O)(=O)c1ccc(S(=O)(=O)N2CCCC2)cc1 | i | 0.92 | 88
CC(C)(C)N=C1NN=C(c2ccc3[nH]c(=O)oc3c2)CS1 | i | 1.1 | 91
CC(C)(C)OC(=O)N1CC=C(n2c(=O)[nH]c3ccccc32)CC1 | i | 1.1 | 94
CN(C)c1nc(N)nc(CSc2nnc(-c3nnc(-c4ccccc4)o3)o2)n1 | i | 1 | 104
N#Cc1nc2c(S(=O)(=O)c3ccc(Cl)cc3)c(N)n(CCCN3CCOCC3)c2nc1C#N | 2.8 | 1.5 | 77
Cc1cc2oc(=O)cc(COC(=O)C3=Cc4ccccc4OC3)c2cc1Cl | i | 1.1 | 101
Cn1c(=O)n(Cc2ccc(F)cc2Cl)c(=O)c2ccc(C(F)(F)F)nc21 | i | 1 | 101
Cc1cc(C(=O)CN2C(=O)C3CCCN3C2=O)c(C)n1Cc1ccco1 (centres undefined) | i | 1.1 | 88
c1ccc2c(c1)nc(CSc1nnnn1C1CC1)c1ccccc12 | i | 1.1 | 101

Of the compounds above, these contain a tert-butyl group.
SMILES | CFTR F508del | CFTR F508del fold 10 ug/mL | CFTR F508del viability 10 ug/mL | others
COC(=O)c1nnn(C2CCN(C(=O)C3CCCN3C(=O)OC(C)(C)C)CC2)c1C(=O)OC (centres undefined) | i | 0.89 | 94
CCCCn1nnnc1COC(=O)c1sc(NC(=O)C(C)(C)C)cc1C | i | 0.92 | 89
CC(C)(C)N=C1NN=C(c2ccc3[nH]c(=O)oc3c2)CS1 | i | 1.1 | 91
CC(C)(C)OC(=O)N1CC=C(n2c(=O)[nH]c3ccccc32)CC1 | i | 1.1 | 94

(more compounds)
SMILES | CFTR F508del | CFTR F508del fold 10 ug/mL | CFTR F508del viability 10 ug/mL | others
S=c1n(CN2CCc3ccccc3C2)nc2sc3ccccc3n12 | i | 1.1 | 98
O=C(CCBr)N1CCN(C(=O)CCBr)CC1 | i | · | · | CFTR F508del fold 25 µM=1.2;CFTR F508del viability 25 µM=106
CC1(c2ccc3c(c2)OCO3)NC(=O)N(Cc2ccc3c(c2)OCO3)C1=O (centres undefined) | i | 0.99 | 100
O=[N+]([O-])c1cc(S(=O)(=O)C(F)(F)F)ccc1Oc1ccc(S(=O)(=O)c2ccc(Cl)cc2)cc1 | i | 0.97 | 91
CC1CCC(Nc2nc3ccccc3o2)CC1 (centres undefined) | i | 0.85 | 59
Cc1nc(NC(=O)COCC(F)(F)F)sc1C | i | 0.95 | 93
Cc1ccc(-c2nc(C)c(C(=O)NC(C)C3CCCO3)s2)o1 (centres undefined) | i | 1.1 | 88
CC(=O)O[C@H]1CC2CCC3C(CC[C@@]4(C)C3C[C@H]([N+]3(C)CCCCC3)[C@@H]4OC(C)=O)[C@@]2(C)C[C@@H]1N1CCCCC1 (some centres undefined) | i | · | · | CFTR F508del fold 25 µM=1.1;CFTR F508del viability 25 µM=96
CC1(C)S[C@@H]2[C@H](NC(=O)[C@H](NC(=O)N3CCNC3=O)c3ccccc3)C(=O)N2C1C(=O)O (some centres undefined) | i | · | · | CFTR F508del fold 25 µM=1.1;CFTR F508del viability 25 µM=107
CCCCCN=C(N)N/N=C/c1c[nH]c2ccc(OC)cc12 | i | · | · | CFTR F508del fold 25 µM=1.3;CFTR F508del viability 25 µM=92
Cc1nn2c(=O)cc(CSc3nc4ccccc4c(=O)n3-c3ccccc3)nc2s1 | i | 0.99 | 112
COC(=O)C1CCCCN1S(=O)(=O)c1ccc2c(c1)CCC(=O)N2 (centres undefined) | i | 1.4 | 99
Cc1cccc(C(=O)O)c1O | i | · | · | CFTR F508del fold 25 µM=0.94;CFTR F508del viability 25 µM=108
C[N+](C)(C)CCCCCCCCCC[N+](C)(C)C | i | · | · | CFTR F508del fold 25 µM=1.2&1.1;CFTR F508del viability 25 µM=112&108
Fc1ccc(-n2c(SCCOc3ccc(Br)cc3)nnc2-c2ccncc2)cc1 | i | 0.94 | 92
COC(=O)c1cnc(NC(=O)/C=C/c2ccc(Br)s2)s1 | i | 1.1 | 103
O=S(=O)(Nc1ccc2c(c1)OCCO2)c1cc(F)cc(F)c1 | i | 0.92 | 97
CCOC(=O)C1=C(CSc2nc(C(=O)OCC)ccc2C#N)NC(=O)NC1CC (centres undefined) | i | 1.2 | 83
Cc1cc(C)n2nc(SCC3CC3(Cl)Cl)nc2n1 (centres undefined) | i | 1 | 88
CC1(C)C2CCC1(CS(=O)(=O)O)C(=O)/C2=C\c1ccc(/C=C2\C(=O)C3(CS(=O)(=O)O)CCC2C3(C)C)cc1 | i | · | · | CFTR F508del fold 25 µM=0.64;CFTR F508del viability 25 µM=26
O=S(=O)(NCCN1CCCC1)c1ccc(F)c(F)c1 | i | 0.97 | 87
CN(Cc1ccc2c(c1)OCCO2)S(=O)(=O)Cc1ccccc1 | i | 1.2 | 98
NC(=O)Nc1ccc(Cl)c(N)c1 | i | 0.92 | 103
OCCc1ccccc1 | i | · | · | CFTR F508del fold 25 µM=1;CFTR F508del viability 25 µM=112
CS(=O)(=O)CCNCc1ccc(-c2ccc3ncnc(Nc4ccc(OCc5cccc(F)c5)c(Cl)c4)c3c2)o1 | i | · | · | CFTR F508del fold 25 µM=0.8&0.68;CFTR F508del viability 25 µM=85&48
CN(C)CC(C)(C)CNC(=O)c1ccc(S(=O)(=O)N2CCOCC2)o1 | i | 0.91 | 101
O=C(CSC1=NCCS1)NC(=O)NCc1cccs1 | i | 1 | 88
Cc1ccccc1-n1nnnc1SCCOC(c1ccccc1)c1ccccc1 | i | 0.97 | 85
Cc1cc(C)c(S(=O)(=O)NC2CCCCCC2)c(C)c1NS(C)(=O)=O | i | 1.1 | 91
Cc1cc(S(N)(=O)=O)c(C)s1 | i | 0.97 | 82

The list goes on, starting with the last 6 of the part before.
SMILES | CFTR F508del | CFTR F508del fold 10 ug/mL | CFTR F508del viability 10 ug/mL | others
CS(=O)(=O)CCNCc1ccc(-c2ccc3ncnc(Nc4ccc(OCc5cccc(F)c5)c(Cl)c4)c3c2)o1 | i | · | · | CFTR F508del fold 25 µM=0.8&0.68;CFTR F508del viability 25 µM=85&48
CN(C)CC(C)(C)CNC(=O)c1ccc(S(=O)(=O)N2CCOCC2)o1 | i | 0.91 | 101
O=C(CSC1=NCCS1)NC(=O)NCc1cccs1 | i | 1 | 88
Cc1ccccc1-n1nnnc1SCCOC(c1ccccc1)c1ccccc1 | i | 0.97 | 85
Cc1cc(C)c(S(=O)(=O)NC2CCCCCC2)c(C)c1NS(C)(=O)=O | i | 1.1 | 91
Cc1cc(S(N)(=O)=O)c(C)s1 | i | 0.97 | 82
CCOC(=O)c1sc(N)c(C(=O)OCC)c1CSc1nnc(C2CC2)n1C | i | 0.92 | 99
CN(Cc1ccc2c(c1)OCO2)S(=O)(=O)c1ccc2c(c1)CCCC2 | i | 0.85 | 86
CC(C)CN(C(=O)COC1CCCCC1)c1c(N)n(CC(C)C)c(=O)[nH]c1=O | i | 0.98 | 98
Cc1ncc(CSSCc2cnc(C)c(O)c2CO)c(CO)c1O | i | · | · | CFTR F508del fold 25 µM=0.92;CFTR F508del viability 25 µM=92
Cc1ccc(C(=O)COC(=O)C23CC4CC(CC(Br)(C4)C2)C3)cc1C | i | 1.1 | 95
CCCCn1c(N)c(N(C(=O)c2cc3c(s2)CCC3)C2CCCC2)c(=O)[nH]c1=O | i | 1 | 107
CCCn1nnnc1CN1C(=O)NC(C)(c2ccc(C(C)(C)C)cc2)C1=O (centres undefined) | i | 1.1 | 88
CC(C)C(C(=O)O)n1cnc2ccccc21 (centres undefined) | i | 1.1 | 108
CC1CCN(S(=O)(=O)NCC2(c3ccccc3)CC2)CC1 | i | 0.85 | 96
O=C(O)c1ccccc1 | i | · | · | CFTR F508del fold 25 µM=1.5;CFTR F508del viability 25 µM=105
CCC1(c2ccc(F)cc2)NC(=O)N(Cc2cc3c(cc2Br)OCO3)C1=O (centres undefined) | i | 0.87 | 88
O=[N+]([O-])c1cccc2ccc(/C=C/c3ccccc3)nc12 | i | 0.83 | 75
CN(Cc1cccc(F)c1)c1ccc2nnnn2n1 | i | 0.97 | 95
COCCNc1nc(CSc2ccc(Br)cc2)nc2sc3c(c12)CCCC3 | i | 1.1 | 86
COc1ccc(O)cc1 | i | · | · | CFTR F508del fold 25 µM=0.95;CFTR F508del viability 25 µM=115
C=CCNCC(F)(F)F | i | 1.1 | 95
O=C1NC(c2ccc(-n3cccn3)cc2)Nc2ccccc21 (centres undefined) | i | 0.99 | 86
COc1cc(CN)ccc1OCCO | i | 0.87 | 73
O=C(Nc1ccc(F)cc1F)NC1CCCC1 | i | 1 | 101
COc1cccc(Cn2c(=O)c(C#N)c3n(c2=O)CCC3)c1 | i | 1.1 | 84
Cc1nn(CC(=O)NCCN(C(C)C)C(C)C)c(C)c1Br | i | 1 | 80
C[C@@H]1CCC[C@H](C)N1NC(=O)c1ccc(Cl)c(S(N)(=O)=O)c1 | i | · | · | CFTR F508del fold 25 µM=0.97;CFTR F508del viability 25 µM=86
Clc1cc2c(c(CSc3nc4ccccc4o3)c1)OCOC2 | i | 0.9 | 87
CC(C(=O)Nc1sc2c(c1C(N)=O)CCC2)N(C)Cc1ccco1 (centres undefined) | i | 1.1 | 91
C#C[C@]1(O)CC[C@H]2[C@@H]3[C@H](C)CC4=C(CCC(=O)C4)[C@H]3CC[C@@]21C | i | · | · | CFTR F508del fold 25 µM=0.85;CFTR F508del viability 25 µM=88

Random excerpt: two compounds from above, in no set order.
SMILES | CFTR F508del | CFTR F508del fold 10 ug/mL | CFTR F508del viability 10 ug/mL | others
CN(Cc1ccc(C(F)(F)F)cc1)Cn1cnc(-c2ccc([N+](=O)[O-])cc2)n1 | i | 0.97 | 96
COc1cccc(Cn2c(=O)c(C#N)c3n(c2=O)CCC3)c1 | i | 1.1 | 84

The list is partial, so the mix of outcomes need not match the whole.
